ClpP mod: qHTS Assay for Activators of ClpP | ATP-dependent Clp protease proteolytic subunit (Bacillus subtilis (strain 168)), P80244 | purified B. subtilis ClpP, FRET peptide cleavage, 20 min | Potency, µM (highest dose often 57.5 µM), inactives show at the top dose activity change, negative = active | hit rate 1.9% among 340,000; active = well fitted falling curve with a large enough effect; inconclusive = small, poorly fitted or top-dose-only effect; inactive = no such curve, though single readings can be large or run the other way; note: potency is the fitted concentration of half-maximal effect; the source files actives as falling curves though it sought activators and does not explain the sign; nearly all actives have a fitted effect of over 65% in size; many hits overshoot -100%
Target sequence (P80244 whole entry, looked up): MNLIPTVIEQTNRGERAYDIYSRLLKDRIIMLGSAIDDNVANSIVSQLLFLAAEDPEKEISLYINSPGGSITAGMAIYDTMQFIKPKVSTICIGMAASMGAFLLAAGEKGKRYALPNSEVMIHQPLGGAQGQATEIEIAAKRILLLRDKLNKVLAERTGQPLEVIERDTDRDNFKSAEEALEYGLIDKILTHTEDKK
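FRET quenching reversal measured ClpP activation: 10 microg/mL B. subtilis ClpP at pH 8 with the FRET-FV decapeptide, read at 430 nm after 320 nm excitation. The 20-min minus 0-min signal was scaled between DMSO/no-enzyme wells and ADEP (5.8 microM final).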
TRPML1 blocker: human mucolipin-1 channel inhibition | TRPML1-inducible cells, Ca2+ dye fluorescence, FDSS; hits give low values; inhibition of EC80 agonist-evoked calcium signal | activity change, negative = inhibition, % (concentration not given with the values) | hit rate 0.02% among 390,000 | AID 624415; in the data active means activity change below about -50%; inconclusive means about -30% to -50%; inactive means above about -30%;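 note: stimulus is agonist 54-4 at its EC80 concentration; % is set by controls: 0 for no effect and ±100 for the full control effect; compound concentration not given in the record; the text of the record puts the active cut at -80%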
Target sequence (Q9GZU1 whole entry, looked up): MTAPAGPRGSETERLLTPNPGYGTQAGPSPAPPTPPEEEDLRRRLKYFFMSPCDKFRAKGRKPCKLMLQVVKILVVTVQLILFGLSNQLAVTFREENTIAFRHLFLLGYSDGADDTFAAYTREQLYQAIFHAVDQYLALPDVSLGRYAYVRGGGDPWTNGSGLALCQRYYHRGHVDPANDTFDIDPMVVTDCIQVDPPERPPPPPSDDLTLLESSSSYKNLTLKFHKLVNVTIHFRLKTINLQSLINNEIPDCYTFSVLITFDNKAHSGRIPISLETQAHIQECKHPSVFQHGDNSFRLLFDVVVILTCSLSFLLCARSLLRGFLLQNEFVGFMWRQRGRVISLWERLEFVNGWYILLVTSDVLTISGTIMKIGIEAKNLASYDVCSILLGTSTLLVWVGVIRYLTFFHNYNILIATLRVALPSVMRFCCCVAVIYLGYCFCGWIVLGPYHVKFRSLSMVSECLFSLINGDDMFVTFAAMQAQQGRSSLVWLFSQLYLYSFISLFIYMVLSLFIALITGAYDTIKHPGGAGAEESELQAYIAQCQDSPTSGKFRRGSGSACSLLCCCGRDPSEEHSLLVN
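Tet-induced TRPML1-DL cells loaded with Ca8 no-wash calcium dye were read kinetically on FDSS. Compound addition was followed by EC80 agonist 54-4 (4 uM final); inhibition was read over 110 s.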
Active calls of the source: *; ? = inconclusive.

Structure	ClpP mod	TRPML1 blocker
O=C(c1ccc2c(c1)N(Cc1ccccc1)C(=O)c1ccccc1S2(=O)=O)N1CCC(Cc2ccccc2)CC1	0.4%	2
Cc1ccc(NC(=O)C(=O)NCC(c2cccnc2)N2CCN(c3ccccc3F)CC2)cc1Cl (stereo not drawn)	4.0%	-15
Cc1ccc(NC(=O)c2oc3c(c2C)-c2[nH]ncc2CC3)c(Cl)c1	-12%	-4
COc1ccc(Cn2ccc3nc(C)c(C(=O)Nc4cccc(SC)c4)cc3c2=O)cc1	-22%	9
CCCCN(Cc1cccs1)S(=O)(=O)c1cc(-c2cc(C)no2)ccc1C	-2.8%	40
CCc1ccc(-c2nc(CN3CCCC(C(=O)N4CCN(c5cc(Cl)ccc5C)CC4)C3)c(C)o2)cc1 (stereo not drawn)	-5.9%	14
CCOC(=O)C1=C(CN2CCN(c3ccc(OC)cc3)CC2)NC(=O)NC1c1ccc(Cl)cc1 (stereo not drawn)	-2.2%	-13
CC(=O)c1cccc(NC(=O)CSc2nc(=O)n(Cc3ccco3)c3c2CCC3)c1	1.0%	-5
COc1ccccc1-c1nc(SCC(=O)Nc2ccc(C)c(C)c2)n[nH]1	3.9%	-11
COc1ccc(NC(=O)c2ccc3c(=O)n4nc(Nc5cccc(Cl)c5C)sc4nc3c2)cc1	4.5%	-6
CCOC(=O)c1c(C)[nH]c(C)c1S(=O)(=O)N(C)CC(=O)Nc1ccc(CC)cc1	1.0%	-22
CC(C)c1ccc(NC(=O)Nc2nc(CN)cs2)cc1	-0.9%	-9
Cc1cc(C)cc(NC(=O)CSc2nc(=O)[nH]c3c2CCC3)c1	-4.5%	57
COc1ccc(OC(=O)c2cc(-c3ccc4c(c3)OCCO4)on2)cc1	-6.1%	11
CCOC(=O)c1c(C)[nH]c(C)c1S(=O)(=O)N1CCCC(C(=O)NCc2ccc(Cl)cc2)C1 (stereo not drawn)	-2.6%	8

Structure	ClpP mod	TRPML1 blocker
COc1cccc2c1ncc1c(-c3ccc(C)cc3)nn(-c3ccc(F)cc3)c12	-22%	4
CCOc1ccc(NC(=O)CC2C(=O)N(c3cccc(C)c3)C(=O)N2CCC2=CCCCC2)cc1 (stereo not drawn)	0.8%	-1
CC(=O)c1ccc(NS(=O)(=O)c2ccc3[nH]c(=O)[nH]c3c2)cc1	-18%	11
O=C(c1ccc2c(c1)N(Cc1ccccc1F)C(=O)c1ccccc1S2(=O)=O)N1CCC(Cc2ccccc2)CC1	-1.4%	-8
FC(F)(F)c1ccc2c(c1)ncc1c(-c3ccccc3)nn(-c3ccccc3)c12	-0.2%	2
COc1ccccc1C(=O)NC1(C(F)(F)F)NC(=O)N(CCc2ccccc2)C1=O (stereo not drawn)	-2.0%	33
CN(C)S(=O)(=O)c1ccc2c(c1)nnn2CCNC(=O)Nc1ccc(Br)cc1	-0.1%	36
O=C(Cn1cc(SCc2ccccc2F)c2ccccc21)N1CCCCCC1	0.8%	32
Cc1ccc(NCc2ccccc2-c2nnc(-c3ccccc3Cl)o2)c(C)c1	-3.9%	10
CCc1sc(Nc2ccc(Cl)cc2)nc1-c1cc2cccc(OC)c2oc1=O	1.1%	35
COC(=O)c1ccc([C@H]2Nc3ccc(S(=O)(=O)Nc4ccc(C)cc4)cc3[C@H]3C=CC[C@H]32)cc1	-4.5%	-12
CC(C)c1ccc(Nc2sc(C(=O)c3ccccc3)c(N)c2S(=O)(=O)c2ccccc2)cc1	-8.7%	11
CCOc1cccc(C2c3c(oc4ccc(F)cc4c3=O)C(=O)N2CCc2ccc(OC)cc2)c1 (stereo not drawn)	0.9%	-12
CCOC(=O)c1ccc2c(c1)N(CC(=O)N(C)c1ccccc1)C(=O)c1ccccc1S2	-5.1%	-16
CC1(C(=O)NS(=O)(=O)c2cccc(Cl)c2)CCN1C(=O)CC1CCCC1 (stereo not drawn)	1.3%	-12

Structure	ClpP mod	TRPML1 blocker
CCCC(=O)Nc1ccccc1C(=O)OCc1cc(=O)n2nc(C(C)C)sc2n1	-6.0%	-8
COc1ccc(NC(=O)C2CCN(c3cc(C)nc4c(-c5ccc(Cl)cc5)c(C)nn34)CC2)cc1	?	-3
COc1ccccc1NC(=O)c1c(NCc2ccc(OC)c(OC)c2OC)sc2c1CCC2	-4.0%	-3
CCOCCc1nn2c(=O)cc(COC(=O)C3CCCCC3)nc2s1	2.6%	10
Cc1ccc(C2=Nc3ccccc3N(CC(=O)NCc3ccc(F)cc3)C(=O)C2)cc1C	2.1%	-3
Cc1ccc(Nc2c3c(nc4nncn24)CCC3)cc1	1.3%	31
CCC1Oc2ccc(C)cc2N(CC(=O)NCc2ccc(OC)cc2)C1=O (stereo not drawn)	-1.3%	-15
Cc1cc2nc(-c3cc(NC(=O)c4cc5ccccc5o4)ccc3Cl)oc2cc1C	3.2µM*	19
Cc1ccc(NC(=O)c2ccc(CN3C(=O)CCn4nc(C)cc43)cc2)c(Cl)c1	-30%	2
COc1ccc2c(c1)c1c(c(=O)n(-c3cccc(Cl)c3)c(=O)n1CC(=O)N1CCCC1)n2C	4.6%	-4
COc1ccc(N2CCN(c3cc(C)nc4nc(-c5ccc(C)cc5)nn34)CC2)cc1	-6.8%	10
CC(C)CNC(=O)N1[C@H](c2cccs2)[C@@H](C)C(=O)[C@@H](C)[C@@H]1c1cccs1	-1.5%	1
CCOC(=O)C1CCN(c2nc3ccccc3nc2Cl)CC1	-0.6%	18
CCOC(=O)C1=C(CN2CCN(c3ccccc3F)CC2)NC(=O)NC1c1ccc(OC)cc1 (stereo not drawn)	-5.0%	6
COc1ccc(NC(=O)C2Cc3c(-c4cccc(F)c4)ccnc3O2)cc1 (stereo not drawn)	-5.0%	12

SMILES	ClpP mod	TRPML1 blocker
CCc1nn(CC(=O)NCCN(CC)CC)c(=O)c2cc3occc3n12	-12%	5
COc1cc2ncc3c(-c4ccccc4)nn(CC(=O)NC4CCCCC4)c3c2cc1OC	?	-2
COc1ccc(-c2cn3nc(N4CCCC(C(=O)Nc5ccccc5F)C4)sc3n2)cc1 (stereo not drawn)	0.5%	-7
COc1ccc(-n2c(=O)c3sc4ccccc4c3n(CC(=O)N3CCCC3)c2=O)cc1	-10%	-5
O=C(NCCc1ccccc1)c1cccc2c(-c3cccnc3)coc12	-18%	49
Cc1ccccc1-n1c(SCc2ccc(Cl)cc2)nc2[nH]ncc2c1=O	-2.3%	-17
Cc1csc2nc(COc3ccccc3NC(=O)c3ccco3)cc(=O)n12	-0.8%	-18
CCOC(=O)Cn1c(CN2CCN(c3ccc(OC)cc3)CC2)nc2c1c(=O)[nH]c(=O)n2C	1.0%	7
CCc1nc2ccc(C(=O)N(C)CCCN(C)C)cn2c1N(C)C(=O)C1CCCCC1	-10%	-24
CCc1ccccc1NC(=O)Cn1cc2c(n1)CCC(C)C2 (stereo not drawn)	0.2%	20
CCOC(=O)N1CCC(NC(=O)c2cnn(-c3ccc(C)cc3)c2C2CCN(C(=O)OC(C)(C)C)CC2)CC1	0.7%	12
Cc1nc2ccccn2c(=O)c1NC(=O)c1c(F)cccc1F	-10%	-1
COC(=O)c1ccc(Nc2nc(-c3ccccc3Cl)nc3ccccc23)cc1	4.1%	-11
CCOC(=O)c1cccc(NC(=O)c2oc3c(c2C)-c2[nH]ncc2CC3)c1	-20%	2
CCOc1ccc(CNC(=O)CCc2c(C)nn(-c3ccc(N4CCOCC4)nn3)c2C)cc1	-2.3%	-4

Single records, from the list above:
Profile of COc1cc2ncc3c(-c4ccccc4)nn(CC(=O)NC4CCCCC4)c3c2cc1OC → ClpP mod = ?; TRPML1 blocker = -2
Profile of Cc1csc2nc(COc3ccccc3NC(=O)c3ccco3)cc(=O)n12 → ClpP mod = -0.8%; TRPML1 blocker = -18

Other structures.
SMILES	ClpP mod	TRPML1 blocker
O=C(CSc1nncn2c1cc1sccc12)Nc1ccccc1C(F)(F)F	-3.2%	10
COc1ccccc1CNC(=O)c1ccc(N2Cc3cccc(OC)c3Oc3ncccc32)s1	-26%	9
COc1ccc(-c2csc3ncnc(Nc4ccc(OC)c(OC)c4)c23)cc1	4.5%	-8
Cc1cccc(NC(=O)Cn2c(=O)n(CCC(C)C)c(=O)c3cccnc32)c1	37%	0
CC1CCCN(CCCNC(=O)c2cc(Sc3ccc(F)cc3)nc3ccccc23)C1 (stereo not drawn)	-7.7%	-10
CCOC(=O)c1cc(C)n(CC2CCC(C(=O)Nc3cc(OC)cc(OC)c3)CC2)c1C (stereo not drawn)	0.3%	37
Cc1ccc(C)c(N2CCN(S(=O)(=O)c3ccc4c(c3)C(C(C)C)C(=O)N4)CC2)c1 (stereo not drawn)	0.5%	-9
CCC(CC)C(=O)N1c2ccccc2C(C)(c2ccccc2)CC1(C)C (stereo not drawn)	-1.2%	-19
O=C(CN1N=C(c2ccc(Cl)cc2)CCC1=O)NCCc1ccc(Cl)cc1	0.7%	-19
O=C(Nc1cc2c(cc1C(=O)c1ccc(Br)cc1)OCCO2)c1ccc(Cl)cc1	0.0%	18
Cc1nn(CCCC(=O)NCc2cccc(F)c2)c(=O)c2nn(-c3ccccc3)c(C)c12	1.4%	26
Cc1ccccc1NCc1cccn1-c1nnc(N2CCC(C)CC2)s1	0.2%	31
CN1CCN(C(=O)c2ccc3c(c2)N(Cc2ccc(F)cc2)C(=O)c2ccccc2S3(=O)=O)CC1	-1.3%	-1
CCOc1ccccc1NC(=O)c1c(NCc2ccc(OC)c(OC)c2OC)sc2c1CCC(C)C2 (stereo not drawn)	-1.6%	5
Cc1nc2ccc(C(=O)NCCc3c[nH]c4ccccc34)cn2c1N(C)C(=O)CCc1ccccc1	-4.9%	5

Single entries from the list.
Value of `Cc1ccc(NC(=O)c2oc3c(c2C)-c2[nH]ncc2CC3)c(Cl)c1` in TRPML1 blocker: -4
Value of `Cc1nc2ccccn2c(=O)c1NC(=O)c1c(F)cccc1F` in ClpP mod: -10%
Value of `CC(=O)c1cccc(NC(=O)CSc2nc(=O)n(Cc3ccco3)c3c2CCC3)c1` in TRPML1 blocker: -5
Value of `O=C(Nc1cc2c(cc1C(=O)c1ccc(Br)cc1)OCCO2)c1ccc(Cl)cc1` in ClpP mod: 0.0%
Value of `COc1ccc(N2CCN(c3cc(C)nc4nc(-c5ccc(C)cc5)nn34)CC2)cc1` in TRPML1 blocker: 10
Value of `COc1ccc(-c2cn3nc(N4CCCC(C(=O)Nc5ccccc5F)C4)sc3n2)cc1` (stereo not drawn) in ClpP mod: 0.5%
Value of `Cc1cccc(NC(=O)Cn2c(=O)n(CCC(C)C)c(=O)c3cccnc32)c1` in ClpP mod: 37%

Next section:
SMILES	ClpP mod	TRPML1 blocker
CCC(=O)N1c2ccc(S(=O)(=O)CCC(=O)Nc3ccc(Br)c(C)c3)cc2CC1C (stereo not drawn)	0.2%	24
CCOc1ccc(-c2nonc2NC(=O)COc2ccccc2)cc1	-2.4%	-11
Clc1ccc(CSc2nnc(-c3ccccn3)n2Cc2cccs2)cc1Cl	-2.2%	6
Cc1cccc2c1-c1sc(C(=O)N3CCN(c4ccccc4)CC3)cc1CO2	-25%	23
CC1=C(C(=O)N(C(C)C)C(C)C)CC(CC(=O)NCCCN(C)C)C(=O)N1CCC1=CCCCC1 (stereo not drawn)	-3.9%	5
O=C(Nc1ccc(-c2nc3cc(Cl)ccc3o2)cc1)c1cc(Br)ccc1Cl	28µM*	-8
CCOC(=O)CCN(c1ccccc1)S(=O)(=O)c1cc(-c2cc(C)no2)ccc1C	-0.8%	9
COc1ccccc1Cc1nc2ccccc2nc1SCC(=O)N(C)c1ccc(F)cc1	-5.2%	22
Cc1nc2cc(-c3ccccc3)nn2c(C)c1CCC(=O)NCCc1ccccc1	4.2%	-21
CN(Cc1ccccc1)C(=O)C(=O)Nc1ccc2nc3n(c(=O)c2c1)CCCCC3	-0.3%	-18
CCc1nn2c(=O)cc(COC(=O)c3ccc(NC(=O)c4cccs4)cc3)nc2s1	-18%	-26
COc1ccc(NC(=O)CSC2=Nc3ccccc3C3=NC(Cc4ccccc4)C(=O)N23)cc1Cl (stereo not drawn)	-4.7%	-11
CC(C)(CC(=O)OCC(=O)Nc1ccc(F)c(Cl)c1)CC1=NS(=O)(=O)c2ccccc2N1	0.9%	-3
COc1ccccc1CNC(=O)c1cc2sccc2n1Cc1ccc(Cl)cc1	-24%	-5
O=C(Nc1c(C(=O)N2CCN(c3ccccc3)CC2)oc2ccccc12)c1ccco1	-17%	47

SMILES	ClpP mod	TRPML1 blocker
Cc1cccc(-n2ncc3c(Nc4c(C)cc(C)cc4C)ncnc32)c1	-24%	2
CCOC(=O)c1sc2ncn(CC(=O)Nc3ccc(C)cc3C)c(=O)c2c1C	2.2%	17
COc1ccc(CC(=O)NCc2ccc3c(c2)CCN3C(=O)c2ccc(Cl)cc2)cc1	-4.2%	-8
COc1ccc(CCNC(=O)c2cnc3sc(N4CCCCCC4)nn3c2=O)cc1	3.9%	-21
Cc1ccccc1NC(=O)CCC(=O)N1CC(C)Sc2ccccc21 (stereo not drawn)	1.7%	18
COCCCNC(=O)C1CCN(c2nc3ccc(C)cc3[nH]2)CC1	0.3%	14
COc1ccc(OC)c(C(=O)CN2C(=O)N(c3cc(C)cc(C)c3)S(=O)(=O)c3ccccc32)c1	4.6%	-14
CCC(CC)C(=O)N(C)c1c(C)nc2c(OCCOc3ccc(F)cc3)cccn12	-0.3%	25
O=C(Cn1ncc2c3ccccc3n(Cc3ccc(F)cc3)c2c1=O)NC1CCCCCC1	-5.1%	12

Not all compounds are listed; rates above refer to the full screens.
